LASV entry inh: inhibitors of Lassa virus binding or cell entry | Potency, µM (titrated, usually from 37.9 µM), for the others: top-dose activity change, negative = inhibition, hits mostly inhibitors | Lassa virus pseudotype entry inhibition, cell reporter; control for the full effect not named in the record | 300,000 compounds, 1.2% hits; active means well fitted inhibition curve with a large enough effect; inconclusive means small, poorly fitted or top-dose-only effect, or effect the other way; inactive means flat fitted curve, though single readings scatter; tested in HEK293 cells; also: % is scaled to controls: 0 for no effect and ±100 for the full control effect; nearly all actives have a fitted effect of over 50% in size; luciferase read-out
Marburg entry inh: Marburg virus entry inhibition; Marburg virus pseudotyped entry inhibition, cell reporter; control for the full effect not named in the record; about a third of the inactives were read at about 46 µM; Potency, µM (top dose mostly 37.8 µM), without a hit: top-dose activity change, negative = inhibition, actives largely listed as inhibitors; 300,000 compounds, 1.8% hits; AID 540276; active = well fitted inhibition curve with a large enough effect; inconclusive = small, poorly fitted or top-dose-only effect, or effect the other way; inactive = flat fitted curve, though single readings scatter; tested in HEK293 cells; about a fifth of its hits are not listed in these tables; also: % is scaled to controls: 0 for no effect and ±100 for the full control effect; luciferase read-out
SARS PLpro yeast: inhibitors of SARS-CoV papain-like protease in yeast | S. cerevisiae expressing SARS-CoV PLpro, growth rescue; control for the full effect not named in the record | Potency, µM (series often up to 32.9 µM), without a hit: at the highest dose activity, positive = growth rescue | 330,000 compounds, 0.19% hits | AID 485353; also: 0% is about no effect; nearly all actives have a fitted effect of over 55% in size; growth read by luminescence after 48 h
RE007 growth inh: less growth of the S. pombe RE007 Vpr strain. S. pombe RE007 Vpr strain, BacTiter-Glo ATP luminescence, 24 h; control for the full effect not named in the record. Potency, µM (highest dose often 92.2 µM), for the others: top-dose activity change, negative = less growth. 360,000 compounds, 0.21% hits; active = well fitted falling curve with a large enough effect; inconclusive = small, poorly fitted or top-dose-only effect; inactive = no such curve, though single readings can be large or run the other way;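 also: % is scaled to controls: 0 for no effect and ±100 for the full control effect; nearly all actives have a fitted effect of over 50% in size; the assay follows cell death caused by Vpr and the record does not say whether a fall means rescue or toxicity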
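Fission yeast strain RE007, carrying one chromosomally integrated HIV-1 vpr copy, was seeded at OD 0.01 in PMG+AL medium with 23 nL pinned compound. After 24 h at 30 °C and 99% humidity, viability was read by BacTiter-Glo luminescence.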
Cruzain Triton: blocks cruzain activity in presence of Triton detergent. P25779. purified cruzain, Z-FR-AMC fluorescence, 0.01% Triton. 200,000 compounds, 0.43% hits. Potency, µM, inactives show max response, negative = inhibition, most hits filed as inhibitors; active = well fitted curve in the direction sought with a large enough effect; inconclusive = small, poorly fitted or top-dose-only effect, or another doubt; inactive = no such curve, though single readings can be large; an effect the other way counts as inactive or inconclusive;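 also: plate controls were neutral wells for no effect and buffer without enzyme for full effect; nearly all actives have a fitted effect of over 40% in size; top concentration of the series not given in the record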
Target sequence (P25779 123-467 limits assumed): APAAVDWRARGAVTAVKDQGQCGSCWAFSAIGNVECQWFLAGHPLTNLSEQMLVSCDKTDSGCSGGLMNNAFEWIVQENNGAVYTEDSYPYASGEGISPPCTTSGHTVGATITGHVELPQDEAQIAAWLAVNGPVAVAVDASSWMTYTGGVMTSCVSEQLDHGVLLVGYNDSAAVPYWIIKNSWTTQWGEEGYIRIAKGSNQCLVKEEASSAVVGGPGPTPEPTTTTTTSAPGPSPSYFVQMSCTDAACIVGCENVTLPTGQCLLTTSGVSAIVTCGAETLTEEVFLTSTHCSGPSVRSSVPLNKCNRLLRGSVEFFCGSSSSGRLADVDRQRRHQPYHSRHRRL
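Read-out: AMC fluorescence (360 nm excitation, 450 nm emission), four reads over 2 min, first-to-third difference used. Conditions: cruzain 1.5 nM, Z-FR-AMC 2 uM, pH 5.5 acetate, 5 mM DTT, 0.01% Triton X-100.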
NS1 inh: blocks influenza NS1 protein function. S. cerevisiae slowed by influenza A NS1, growth recovery by OD600. Potency, µM (doses to about 46.1 µM), for inactives: top-dose activity, positive = more growth. 270,000 compounds, 0.4% hits; also: actives are rising curves; nearly all actives have a fitted effect of over 50% in size
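S. cerevisiae expressing influenza A NS1, grown in glucose, washed, then diluted 1:100 into pH 6.0 -URA galactose medium with 23 nl compound. Growth recovery read as OD600; NS1-free strain serves as control.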
2A StopGo: lowers the luciferase signal of an FMDV 2A StopGo reporter | human cells with a luciferase reporter of 2A StopGo recoding; control for the full effect not named in the record | Potency, µM (doses to about 57.9 µM), inactives show top-dose signal change, negative = less light | 410,000 compounds, 1.2% hits | AID 1159524; active = well fitted falling curve with a large enough effect; inconclusive = small, poorly fitted or top-dose-only effect; inactive = no such curve, though single readings can be large or run the other way; tested in HEK293T cells; also: % is scaled to controls: 0 for no effect and ±100 for the full control effect; nearly all actives have a fitted effect of over 45% in size; luciferase light after 4 h
Cruzain noTriton: cruzain (T. cruzi) inhibition without detergent; purified cruzain, Z-FR-AMC fluorescence, no detergent; Potency, µM, for inactives: max response, negative = inhibition, most hits filed as inhibitors; 200,000 compounds, 2.3% hits; AID 1476; active = well fitted curve in the direction sought with a large enough effect; inconclusive = small, poorly fitted or top-dose-only effect, or another doubt; inactive = no such curve, though single readings can be large; an effect the other way counts as inactive or inconclusive;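 also: plate controls were enzyme without inhibitor for no effect and buffer without enzyme for full effect; nearly all actives have a fitted effect of over 40% in size; top concentration of the series not given in the record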
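Purified cruzain at 1.5 nM, pre-incubated 15 min with compound at room temperature in 100 mM sodium acetate pH 5.5, 5 mM DTT, 0.00005% Triton X-100. Reaction started with 2 uM Z-FR-AMC; AMC fluorescence increase over 60 s gives rate.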
An asterisk follows results filed as active; ? = inconclusive; . = not tested or not shown; [ ] = remark or other dose. Unless noted, calls follow the shape of the dose curve; as a rule, active means well fitted rising curve with a large enough effect; inconclusive means small, poorly fitted or top-dose-only effect; inactive means no such curve, though single readings can be large or run the other way. Potency is read from the fitted curve at half-maximal effect.

SMILES	LASV entry inh	Marburg entry inh	SARS PLpro yeast	RE007 growth inh	Cruzain Triton	NS1 inh	2A StopGo	Cruzain noTriton
COc1ccc(-c2cn(Cc3ccc4c(c3)C(=O)c3ccccc3C4=O)nn2)cc1	.	.	-6%	-8%	.	-3%	-5%	.
COc1ccc(C(C(=O)Nc2ccc(C(C)C)cc2)N(C)C(=O)CNC(C)=O)cc1 (stereo not given)	0%	-8%	-1%	-10%	-0.2%	8%	1%	?
O=C1COc2ccc(NC(=O)c3ccccc3C(=O)O)cc2N1	.	.	8%	24%	.	13%	-4%	.
CC(CCc1ccco1)NC(=O)Cn1ncc2c1-c1ccccc1OC2 (stereo not given)	.	.	-7%	-1%	-9.6%	5%	-14%	?
CC(C)NC(=O)CC(=O)N/N=C/c1ccc(F)cc1	17%	19%	-6%	-3%	-7.9%	22%	-2%	-9%
C/C(N)=N\S(=O)(=O)c1ccc(Cl)cc1	13%	14%	-1%	-8%	-1.1%	0%	-20%	-1%
Clc1ccccc1NN(Cc1ccncc1)c1ccccc1Cl	.	.	.	-2%	0.7%	-34%	?	-13%
COC(=O)c1c(NC(=O)CN2C(=O)NC3(CCc4ccccc4C3)C2=O)sc2c1CCCCC2 (stereo not given)	?	?	-3%	-1%	-4.4%	0%	-11%	13µM*
CCOC(=O)CSc1nc(C)cc(C)n1	15%	?	-1%	-13%	0.1%	-7%	-4%	1%
Cn1c(CC2C(=O)Nc3ccc(Br)cc32)nc2ccccc2c1=O (stereo not given)	7%	-20%	-3%	35%	-2.9%	-35%	?	-2%
CCOC(=O)c1ccc(NC(=O)c2nc[nH]c2C(=O)NCCCNC(=O)c2[nH]cnc2C(=O)Nc2ccc(C(=O)OCC)cc2)cc1	.	1%	0%	12%	.	.	-23%	.
N=C1/C(=C\c2coc3ccccc3c2=O)C(=O)N=C2SC=CN12	.	.	-3%	-7%	.	-66%	-23%	.
CC(C)c1ccc(NS(=O)(=O)c2ccc(Cl)nc2)cc1	-6%	12%	-26%	4%	-5.3%	-10%	4%	10%
Clc1ccc(-n2nnnc2SCc2c(-c3ccccc3)nc3sccn23)cc1	7%	14%	-6%	22%	-1.4%	-8%	-14%	?
COc1cc2c(cc1OC)CN(C(=O)COc1ccc(C#N)cc1)CC2	-2%	6%	-1%	7%	-0.6%	-6%	-3%	3%
O=C(Cc1ccccc1)N1CCCC1c1ccccc1 (stereo not given)	14%	-1%	0%	-17%	4.5%	15%	-2%	6%
COc1ccc(C(=O)C2CCCN(Cc3c[nH]c4ccccc34)C2)c(OC)c1 (stereo not given)	3%	?	-1%	1%	.	-8%	?	.
COc1ccc(-c2[nH]c(-c3ccccc3)nc2SCC(=O)Nc2nccs2)cc1	-10%	?	-21%	-4%	-10%	-18%	-30%	-29%
COc1ccc(C(C)(C)C)cc1S(=O)(=O)n1ccnc1C	?	-3%	0%	1%	.	-7%	46%[activator]	.
CCN(CC(=O)Nc1ccc(C)c(S(=O)(=O)N2CCOCC2)c1)Cc1ccccc1	?	-18%	1%	-22%	.	.	-2%	.
COc1cccc(CNC(C)(C)CO)c1OCc1ccc(Cl)cc1	-26%	?	-1%	-12%	.	0%	-24%	.
COc1cc(-c2noc(CCC(=O)NC3CCCC3)n2)cc(OC)c1OC	0%[46.1 µM]	1%[46.1 µM]	0%	0%	.	-10%	-5%	.
COc1cccc(OC)c1C(=O)Nc1ccccc1C(=O)N1CCCCCC1	2%	-5%	?	-18%	.	3%	1%	.
CC(C)N1C(=O)C2C(c3ccccc3O)NC(C)(C(=O)O)C2C1=O (stereo not given)	.	.	0%	-9%	5.5%	0%	-16%	-4%
Cc1ccc(C(=O)Nc2ccc(N3CCN(C)CC3)cc2)cc1C	.	.	-11%	-22%	.	5%	10%	.
O=C(c1ccco1)N1CCN(Cc2ccc(F)cc2)CC1	.	.	-2%	-3%	.	3%	-14%	.
O=C(COc1ccccc1Cl)Nc1ccccc1OCc1cc(=O)n2ccccc2n1	2%[46.1 µM]	.	.	.	3.3%	.	-4%	-1%
CCCC(C)NC(=O)Cc1ccc(Br)cc1 (stereo not given)	2%	3%	5%	1%	1.2%	11%	-1%	5%
O/N=C1/CCc2nonc2/C1=N/O	-11%	-5%	3%	?	3.9%	11%	-21%	2%
COc1ccccc1N(CC(=O)Nc1cccnc1)S(=O)(=O)c1ccccc1	0%	-24%	?	13%	1.2%	-9%	.	5%
CNC(=S)Nc1ccc2[nH]c(=O)[nH]c2c1	24%	-5%	1%	-9%	.	5%	-13%	.
CCOC(=O)c1cc(=O)n2nc(-c3ccc(C)cc3)nc2s1	-1%	?	-1%	11%	0.0%	0%	4%	-2%
C=Cc1cc(OC)c2c(c1)c(=O)oc1c2cc(OC)c2c(O)ccc(C3OC(C)C(O)C(C)(O)C3O)c21 (stereo not given)	0.4µM*	?	.	14%	.	.	?	.
CCOC(=O)c1cnc2ccc(OCC)cc2c1N(C)Cc1ccccc1	2%	?	-46%	-26%	-5.0%	-18%	?	30%
COc1ccc(C(CNC(=O)c2oc3ccccc3c2C)N2CCCCC2)cc1 (stereo not given)	-28%[46.1 µM]	?	.	.	0.2%	.	?	2%
CCOC(=O)CSc1nnc([C@H](C)NC(=O)OC(C)(C)C)o1	1%	19%[46.1 µM]	-1%	-9%	2.2%	2%	-3%	9%
O=C(Nc1c(-c2ccc(F)cc2)nc2ccccn12)c1cccc(F)c1	1%[46.1 µM]	?	.	.	-4.0%	.	-7%	6%
O=C(NCCCN1CCCC1=O)c1cc(S(=O)(=O)N2CCOCC2)ccc1Cl	.	.	-1%	-12%	.	6%	-23%	.
CCCN=C1N(C)C[C@@H]2[C@@H]3C(=O)N(Cc4ccccc4)C(=O)[C@@H]3[C@](Cc3ccccc3)(C(=O)OC)N12	.	-3%	15%	-8%	.	.	-4%	.
COc1ccc(/C=N/Nc2nnc(-c3ncc[nH]3)c3ccccc23)cc1	18%	29%	0%	-13%	-5.9%	3%	?	2%
Cc1cccc(C(=O)NC2=NCCS2)c1	?	?	-3%	5%	.	-1%	2%	.
COc1ccc(CNC(=O)CN(Cc2ccc(F)cc2)C(=O)c2csnn2)cc1	?	.	0%	5%	.	-2%	-10%	.
Cc1ccc(Cn2ncc3c(NCCCN4CCOCC4)ncnc32)cc1	-11%	-4%	3%	18%	1.9%	-5%	-17%	-18%
O=CN1CCN(S(=O)(=O)c2ccc(S(=O)(=O)NC3CCCCC3)cc2)CC1	11%[46.1 µM]	6%[46.1 µM]	-1%	-23%	.	3%	3%	.
COc1cccc(NC(=O)c2ccc(CN3CCc4ccccc4C3)cc2)c1	.	.	0%	-6%	.	-25%	-22%	.
Cc1nnc(NC(=O)CSCc2c(C)noc2C)s1	?	17%	.	0%	.	.	-5%	.
CC1CN=C(NCc2ccc(F)cc2)S1 (stereo not given)	-1%	5%	0%	8%	.	5%	10%	.
Cc1cc(C(=O)NNc2ccccc2F)no1	?	?	-2%	298%	.	-31%	-4%	.
O=C(NN1C(=O)/C(=C\c2cccnc2)SC1=S)C(c1ccccc1)c1ccccc1	-4%	?	-40%	-11%	-10%	?	?	-1%
COc1cccc(C2=NO[C@@H]3C(=O)N(c4ccc5c(c4)OCCO5)C(=O)[C@H]23)c1OC	9%	4%	-2%	0%	-1.8%	-45%	-30%	-14%

Later entries
SMILES	LASV entry inh	Marburg entry inh	SARS PLpro yeast	RE007 growth inh	Cruzain Triton	NS1 inh	2A StopGo	Cruzain noTriton
CS(=O)(=O)Nc1cccc(C(=O)CC2(O)C(=O)Nc3ccccc32)c1 (stereo not given)	8%	9%	6%	13%	0.3%	-2%	-2%	10%
CCN1C(=O)/C(=C/C=C2/Sc3ccc4ccccc4c3N2CCO)SC1=S	-9%	?	-18%	-5%	-3.3%	4%	-13%	-21%
Cc1ccccc1-c1nc(CS(=O)(=O)CC(=O)NCCCN2C(C)CCCC2C)c(C)o1 (stereo not given)	.	.	0%	-10%	7.3%	-4%	-20%	9%
CCOC(=O)C1CCN(C(=O)Cn2nc(CC)n3c(cc4sccc43)c2=O)CC1	.	12%[46.1 µM]	.	.	-3.4%	.	?	1%
CN(C)c1ccc(C2Nc3ccccc3C(=O)N2CCCN2CCOCC2)cc1 (stereo not given)	.	.	-1%	-6%	.	-9%	2.8µM*	.
O=C(/C=C/c1ccc(Cl)cc1)NC1CCS(=O)(=O)C1 (stereo not given)	1%	26%[46.1 µM]	1%	-4%	.	.	2%	.
Cc1ccccc1OCc1nc2ccccc2c(=O)n1NC(=O)c1ccco1	8%	31%	-18%	4%	-1.1%	12%	-15%	-9%
Cc1ccc(C(=O)CNc2ccc(Cl)cc2)cc1	4%[46.1 µM]	3%[46.1 µM]	-16%	-8%	.	.	0%	.
COc1ccccc1/C=C1\SC(=S)N(CCC(=O)NNC(=O)c2ccccc2OC)C1=O	-6%	0%[46.1 µM]	2%	7%	.	-1%	?	.
CCOC(=O)CC1C(=O)NCCN1C(=O)c1c(Cl)cccc1Cl (stereo not given)	4%[46.1 µM]	5%[46.1 µM]	2%	4%	.	1%	-2%	.
Nc1c(NCCN2CCOCC2)c2ccccc2oc1=O	0%	-11%	5%	12%	-3.0%	?	0%	4%
COc1ccc(S(=O)(=O)NCCc2sc(-c3cccnc3)nc2C)c(F)c1	-22%[46.1 µM]	.	.	.	-6.8%	.	11%	11%
CCCCn1c(Cc2ccccc2)nnc1SCC(=O)N1CCOCC1	-1%	1%	?	-8%	-3.7%	3%[9.22 µM]	2%	11%
Cc1ccc(OCC(=O)NNC(=O)c2ccc(NC(=O)C3CC3)cc2)c(C)c1	.	.	-4%	8%	.	6%	-3%	.

An excerpt of these results, with values under each structure:
Every second line gives: LASV entry inh	Marburg entry inh	SARS PLpro yeast	RE007 growth inh	Cruzain Triton	NS1 inh	2A StopGo	Cruzain noTriton
- Nc1c(NCCN2CCOCC2)c2ccccc2oc1=O
  0%	-11%	5%	12%	-3.0%	?	0%	4%
- O=C(c1ccco1)N1CCN(Cc2ccc(F)cc2)CC1
  .	.	-2%	-3%	.	3%	-14%	.

Source: PubChem (National Center for Advancing Translational Sciences (NCATS))
